Screening data deposited in PubChem by several laboratories.
Beta2AR agonist – agonists of human beta-2 adrenergic receptor inducing internalization | P07550 | Am2.2-beta2AR cells, FAP receptor internalization, flow cytometry; reference of the scale not given here | response, % (test concentration not listed) | hit rate 0.43% among 340,000 | AID 504454;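 active = response above a set limit, near 3 SD of response in nonfluorescent compounds, cut at about 42% in these data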;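 note: stock transfer was 100 nL into about 11 µL; a reference agonist was the positive control; negative values mostly stem from fluorescent compounds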
Target sequence (P07550 whole entry, looked up): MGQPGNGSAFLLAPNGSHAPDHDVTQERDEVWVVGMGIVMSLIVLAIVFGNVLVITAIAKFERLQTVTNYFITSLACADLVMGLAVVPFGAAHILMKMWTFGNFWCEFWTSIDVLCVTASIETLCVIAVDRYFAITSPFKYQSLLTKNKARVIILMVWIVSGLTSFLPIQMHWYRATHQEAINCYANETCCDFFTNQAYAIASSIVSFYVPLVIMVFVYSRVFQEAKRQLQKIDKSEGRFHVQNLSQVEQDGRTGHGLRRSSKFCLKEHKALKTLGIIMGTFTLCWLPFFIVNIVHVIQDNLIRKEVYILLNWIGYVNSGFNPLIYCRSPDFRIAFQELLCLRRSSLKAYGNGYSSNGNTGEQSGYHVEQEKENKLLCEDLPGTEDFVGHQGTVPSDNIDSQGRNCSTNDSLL
ALR H2O2 inh – blocks human ALR sulfhydryl oxidase activity; purified ALR, DTT oxidation, H2O2 HRP-luminol luminescence; inhibition, % (test concentration not listed); hit rate 3.8% among 290,000; AID 485317;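 active = mean and each replicate at 75% or more; inconclusive = only one of the two met; inactive = neither met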;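 note: stock transfer was 7.5 nL into about 7.5 µL; 0% = neutral wells and 100% = wells with inactivated enzyme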
Target sequence (P55789 whole entry, looked up): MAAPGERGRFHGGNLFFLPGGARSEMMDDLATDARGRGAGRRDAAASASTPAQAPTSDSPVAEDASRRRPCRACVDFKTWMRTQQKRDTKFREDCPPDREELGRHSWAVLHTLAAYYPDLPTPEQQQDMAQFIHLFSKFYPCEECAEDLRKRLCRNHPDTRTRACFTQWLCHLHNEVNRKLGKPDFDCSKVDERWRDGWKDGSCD
Vif TR-FRET – HIV-1 Vif–A3G interaction blockers – biochemical, TR-FRET, GST-Vif 1-94, biotin-A3G peptide, dose response retest, primary screen (AID 1117319); inhibition, %, or IC50 in µM where a hit was titrated; TR-FRET GST-Vif / biotin-A3G peptide binding; higher % means a stronger effect; test concentration not given here; strong numbers were not always called active; hit rate 0.57% among 260,000;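 active = above the screen mean plus three standard deviations and confirmed in dose response; inconclusive = results disagree or hit not tested in dose response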;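 note: Vif residues 1-94 fused to GST binding biotinylated APOBEC3G peptide 110-148; 0% = full assay without inhibitor and 100% = GST in place of GST-Vif; retest series ran down from 100 µM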
RanGTP-Impb inh – inhibitors of RanGTP-importin-beta interaction, primary screen, biochemical, FRET, CFP-Ran, YFP-importin-beta, homogeneous; cell-free CFP-Ran/YFP-importin-beta FRET ratio; inhibition, % (concentration not given with the values); hit rate 1.1% among 300,000;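 active = most replicates above 15%; inconclusive = exactly half above 15%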;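 note: 0% = DMSO wells and 100% = Ran loaded with GDP instead of GTP; wells of about 40 µL received 100 nL stock; the first replicate is given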
LANA-H2B inh – blocks KSHV LANA binding to histone H2A/H2B; inhibition, % (no concentration beside the values); hit rate 0.6% among 320,000; Q9QR71; cell-free LANA-H2A/H2B peptide, fluorescence polarization; in the data active = inhibition mostly above about 10%, no sharp cut-off; inactive = mostly below about 6.7%;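 note: stock transfer was 7.5 nL into about 10 µL; 0% = median of vehicle wells and 100% = median of positive control wells; one replicate is shown; the record names a cut of 25% in any replicate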
Calb FLC – C. albicans growth modulation with fluconazole. C. albicans CaCi-2 (fluconazole-resistant clinical isolate) + fluconazole, Alamar Blue growth, 48 h. growth inhibition, % (no concentration beside the values). hit rate 0.57% among 300,000. AID 1979;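 active = most replicates above 75%; inconclusive = exactly half above 75%; inactive = most below 75%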;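 note: all wells also contain fluconazole at 8 µg/ml as a sub-toxic cotreatment; 0% = median of DMSO wells and 100% = median of geldanamycin control wells; wells of about 8 µL received 7.5 nL stock; the first replicate is given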
HNF4A DNA FP – change in binding of human HNF4 alpha to DNA. HNF4a-FITC DNA binding, fluorescence polarization, 1 h. hit rate 0.3% among 360,000. activity change, % at 10 µM. AID 1224865; in the data active = activity change above about 30%, passing the limit was not always enough;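 note: controls were the assay level and a saturating level of protein; the project sought stronger binding though the title names inhibitors; some compounds called inactive have numbers as strong as hits; positive values seem to mean higher polarization but the record does not say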
Target sequence (P41235 whole entry, looked up): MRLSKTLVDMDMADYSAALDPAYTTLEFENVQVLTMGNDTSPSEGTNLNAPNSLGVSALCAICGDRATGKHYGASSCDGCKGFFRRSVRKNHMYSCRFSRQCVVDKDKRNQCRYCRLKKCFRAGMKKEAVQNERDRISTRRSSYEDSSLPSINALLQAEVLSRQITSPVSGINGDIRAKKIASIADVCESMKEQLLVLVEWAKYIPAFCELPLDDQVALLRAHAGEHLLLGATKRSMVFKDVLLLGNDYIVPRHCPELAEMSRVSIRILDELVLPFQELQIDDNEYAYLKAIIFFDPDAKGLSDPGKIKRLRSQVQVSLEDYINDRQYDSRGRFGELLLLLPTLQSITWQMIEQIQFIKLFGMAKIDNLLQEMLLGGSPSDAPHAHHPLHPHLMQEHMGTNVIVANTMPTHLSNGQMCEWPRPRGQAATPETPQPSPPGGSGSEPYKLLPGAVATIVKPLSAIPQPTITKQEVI
* marks the source's active call; other numbers are inactive results; ? = inconclusive; / = not tested or not shown; & = joins results of further samples.

(1) Nc1nn(-c2ccccc2)nc1C(=O)OCc1ccccc1
(2) COc1cc(-c2ccc(Nc3ccccc3C(=O)O)c(OC)c2)ccc1Nc1ccccc1C(=O)O
(3) COc1ccc(C(CNC(=O)C2COc3ccccc3O2)N2CCCC2)cc1 (centres undefined)
(4) COC(=O)CC1Nc2ccccc2SC1=O (centres undefined)
(5) COc1ccc2c(=O)c3c(=O)n(Cc4ccco4)c(-c4ccco4)nc3oc2c1
(6) CCOC(=O)Cn1nc(C)c(NC(=O)c2ccc(Cl)c([N+](=O)[O-])c2)c1C

Compound,1,2,3,4,5,6
Beta2AR agonist,6,-4,-2,-1,-21,9
ALR H2O2 inh,0,/,-2,/,-4,-11
Vif TR-FRET,12%,0.94µM*,?,-5%,?,-5%
RanGTP-Impb inh,4.0,/,/,-6.2,0.6,-0.6
LANA-H2B inh,-1.9,/,-0.3,3.8,-1.1,-3.0
Calb FLC,-6,/,/,-15,-11,7
HNF4A DNA FP,2.3,-29,-2.5,-2.5,-21,-1.9

(7) O=C(CCNC(=O)c1ccccc1Cl)NCC(c1ccco1)N1CCCC1 (centres undefined)
(8) O=C(NCC1CCCO1)c1cccc(S(=O)(=O)N(Cc2ccccc2)c2ccccc2)c1 (centres undefined)
(9) COc1ccc(NC(=O)c2c(C(F)(F)F)nn(C)c2SCc2ccccc2Cl)cc1
(10) O=C(CN(C(=O)CNC(=O)c1ccco1)c1ccc(F)c(Cl)c1)NC1CCCCC1
(11) CC(=O)Nc1ccc(N2CCc3c(C)c(C#N)c4nc5ccccc5n4c32)cc1
(12) C=CCNC(=O)c1ccccc1NC(=O)C1CC(=O)N(C(C)C)C1 (centres undefined)

Compound,7,8,9,10,11,12
Beta2AR agonist,3,9,16,-9,/,1
ALR H2O2 inh,2,8,1,4,-27,0
Vif TR-FRET,6%,/,1%,-4%,15%,-4%
RanGTP-Impb inh,6.4,1.0,2.4,3.0,110*,0.5
LANA-H2B inh,-1.4,-0.2,-3.1,1.6,7.1,-6.1
Calb FLC,-5,3,2,1,-2,-4
HNF4A DNA FP,0.5,1.7,-3.1,0.4,/,2.8

(13) COc1ccc(C(=O)Nc2ccc(N3CCN(c4ccc(OC)cc4)CC3)c(C#N)c2)cc1
(14) COc1cccc(C=NNc2ccc([N+](=O)[O-])cn2)c1OC
(15) CCc1cc[n+](-c2nc3ccccc3nc2[N-]S(=O)(=O)c2ccc(Br)s2)cc1
(16) Cc1ccc(CN/C=C/C(=O)c2ccc(Br)cc2)cc1
(17) COc1cccc(-n2c(C)nn(CCOc3ccccc3)c2=O)c1
(18) CCOc1cc(C2C(C#N)=C(N)OC(C)=C2C(C)=O)c(Br)c(Br)c1OC(C)C (centres undefined)

Compound,13,14,15,16,17,18
Beta2AR agonist,3,-6,-129,7,-3,18
ALR H2O2 inh,-3,/,-43,/,-13,35
Vif TR-FRET,?,4%,31%,-4%,/,?
RanGTP-Impb inh,4.3,/,41*,10,3.2,-3.5
LANA-H2B inh,2.9,/,12,/,-3.7,-7.4
Calb FLC,0,/,-5,-33,-8,5
HNF4A DNA FP,0.0,4.4,-63,-3.0,-0.2,0.8

(19) Cc1sc2ncn(CC(=O)OCC(=O)NC(C)(C)C)c(=O)c2c1C
(20) O=C(c1ccc(F)cc1)N1CCCC(N2CCN(Cc3ccc4c(c3)OCO4)CC2)C1 (centres undefined)
(21) CCNC(=O)N(CC)C[C@H]1N[C@@](CC)(C(=O)OC)[C@H]2C(=O)N(Cc3ccccc3)C(=O)[C@@H]12
(22) N#C/C(=C\c1c(Oc2ccc(Cl)cc2)nc2ccccn2c1=O)C(=O)NC1CCS(=O)(=O)C1 (centres undefined)
(23) CCOc1ccc(C2NCCc3cc(OC)c(OC)cc32)cc1OC (centres undefined)
(24) COc1cccc(/C=N/n2nnnc2N)c1OCC#N

Compound,19,20,21,22,23,24
Beta2AR agonist,9,-1,0,5,8,-1
ALR H2O2 inh,5,-5,/,5,-4,-1
Vif TR-FRET,-6%,5%,-5%,/,7%,/
RanGTP-Impb inh,-2.7,3.0,/,51*,-0.1,6.8
LANA-H2B inh,-3.5,-4.0,/,7.7,2.3,-5.6
Calb FLC,3,-8,/,4,-14,-3
HNF4A DNA FP,-3.8,-0.8,-0.8,4.6,-1.3,6.1

(25) C=C1c2ccc(C)cc2NC(=O)N1c1ccccc1
(26) O=C1c2[nH]nc(-c3ccccc3O)c2C(c2ccccc2F)N1Cc1ccco1 (centres undefined)
(27) Cc1cc(C)n2nc(C(=O)N/N=C/c3cccc(Cl)c3)nc2n1
(28) O=C(N/N=C/c1c[nH]c2ccccc12)c1ccn(Cc2ccc(Cl)cc2)n1
(29) Cc1cccc(C)c1OCCNC(=O)CCC(=O)c1ccccc1
(30) CC1CCN(S(=O)(=O)c2ccc3c(c2)oc(=O)n3CC(=O)N2c3ccccc3CC2C)CC1 (centres undefined)

Compound,25,26,27,28,29,30
Beta2AR agonist,/,2,-8,11,-1,8
ALR H2O2 inh,1,3,4,/,-8,-2
Vif TR-FRET,23%,3%,-15%,-1%,2%,9%
RanGTP-Impb inh,2.0,-2.7,-1.3,0.0,-0.8,2.5
LANA-H2B inh,-4.6,-2.0,2.3,4.6,-1.4,-0.6
Calb FLC,-1,0,8,-1,7,-2
HNF4A DNA FP,/,-0.7,-0.7,0.9,-0.3,7.8

(31) C/C(=C\c1ccccc1)C(=O)NCc1ccco1
(32) CCOC(=O)CN1C(=O)S/C(=C\c2ccc3c(c2)OCO3)C1=O
(33) CCn1cc(C2=NC(C(C)C)CO2)c2ccccc21 (centres undefined)
(34) C#CCOCCOCCOCCNc1nc(N2CCN(C(=O)[C@H](Cc3cc4ccccc4[nH]3)n3cc(C(N)CC(C)C)nn3)CC2)nc(N2CCN(C(=O)[C@H](CCC(=O)O)n3cc(C(N)[C@H](C)CC)nn3)CC2)n1 (some centres undefined)
(35) Cc1ccc(S(=O)(=O)N2CCC(=O)N(CCOCc3ccc(F)cc3)CC2)cc1
(36) Cc1ccc(C)c(OCc2cc(C(=O)N3CCN(c4ccccc4C)CC3C)no2)c1 (centres undefined)

Compound,31,32,33,34,35,36
Beta2AR agonist,-7,2,12,-1,-2,-5
ALR H2O2 inh,8,-2,-4,-28,/,0
Vif TR-FRET,0%,0%,-1%,6%,0%,/
RanGTP-Impb inh,1.6,12,0.4,3.1,0.4,2.2
LANA-H2B inh,6.3,1.8,1.0,-0.5,-1.8,0.5
Calb FLC,-21,-46,-2,8,-2,-4
HNF4A DNA FP,1.0,-0.9,1.6,-0.1,0.1,-3.1

The last 2 records of the section above come first, to join the parts.
(35) Cc1ccc(S(=O)(=O)N2CCC(=O)N(CCOCc3ccc(F)cc3)CC2)cc1
(36) Cc1ccc(C)c(OCc2cc(C(=O)N3CCN(c4ccccc4C)CC3C)no2)c1 (centres undefined)
(37) CCCSc1nc2c(cnn2-c2ccccc2)c(=O)[nH]1
(38) Cc1nnc(SCC(=O)NC(C)(C)C)n1NCc1cccc(Br)c1
(39) CCCCCc1nc2c(=O)n(C)c3ccccc3c2o1
(40) CC(C)Oc1ccc(CNC(=O)Cn2ccc3cc(S(=O)(=O)N4CCCC4)ccc32)cc1
(41) COc1ccc(OC)c(NC(=O)CSc2sc3c(O)cc(=O)[nH]c3c2C#N)c1
(42) Cc1ccc(S(=O)(=O)NC2=NCN(Cc3ccccc3)CN2)cc1

Compound,35,36,37,38,39,40,41,42
Beta2AR agonist,-2,-5,3,-6,-13,-2,8,-4
ALR H2O2 inh,/,0,/,0,-29,-5,-18,2
Vif TR-FRET,0%,/,1%,/,-9%,1%,/,?
RanGTP-Impb inh,0.4,2.2,6.4,0.0,-4.8,3.5,1.3,?
LANA-H2B inh,-1.8,0.5,-2.0,-1.1,-1.3,2.1,0.2,-2.5
Calb FLC,-2,-4,0,-30,-13,8,16,13
HNF4A DNA FP,0.1,-3.1,2.9,0.9,-0.8,2.0,-22,-4.2

(43) O=C(CCc1ccccc1)NNC(=O)c1ccccc1Br
(44) CN1C(C(=O)Nc2ccc(F)cc2F)=CC(c2cccs2)=NS1(=O)=O
(45) CC1CCCC(NC(=O)COC(=O)COc2cccc(F)c2)C1C (centres undefined)
(46) O=C(CCNC(=O)C1CCN(S(=O)(=O)c2ccc(F)cc2)CC1)NCc1ccc(F)cc1
(47) Cc1noc(C)c1COc1ccc(C(=O)NCCc2ccccn2)cc1
(48) CNC(=S)N1N=C(c2cccs2)CC1c1ccc(OC)cc1 (centres undefined)

Compound,43,44,45,46,47,48
Beta2AR agonist,4,2,-3,-3,3,4
ALR H2O2 inh,-1,-7,0,-23,-14,-2
Vif TR-FRET,16%,/,-6%,/,?,/
RanGTP-Impb inh,-1.5,5.8,/,2.4,-4.7,1.3
LANA-H2B inh,6.6,10,2.4,3.4,-4.2,3.5
Calb FLC,-1,-5,/,1,1,-9
HNF4A DNA FP,-2.4,-1.0,5.6,4.0,1.8,-5.1

(49) COc1ccc(S(=O)(=O)N2CCC(C(=O)NCCCn3ccnc3)CC2)cc1C
(50) O=C(COC(=O)c1cc2ccccc2o1)NCc1ccco1
(51) COc1ccc(Cl)cc1C=CC=Nc1ccc(S(N)(=O)=O)cc1
(52) CC(C)[C@H](NC(=O)N1CCn2c1nc1ccccc12)C(=O)NCc1ccco1
(53) O=c1c2ccccc2n(Cc2ccccc2F)c(=O)n1Cc1ccccc1F
(54) Nc1cc(S(=O)(=O)Nc2ccccc2Cl)ccc1N1CCCCC1

Compound,49,50,51,52,53,54
Beta2AR agonist,7,1,0,-12,7,0
ALR H2O2 inh,-9,/,/,0,1,0
Vif TR-FRET,/,7%,-6%,-7%,-12%,/
RanGTP-Impb inh,0.0,/,/,0.4,1.4,/
LANA-H2B inh,1.2,/,/,2.0,-3.4,2.0
Calb FLC,1,/,/,3,-9,/
HNF4A DNA FP,0.1,3.2,1.9,-4.1,-3.1,1.2

Single records, as listed above:
`COc1ccc(Cl)cc1C=CC=Nc1ccc(S(N)(=O)=O)cc1` across the screens: Beta2AR agonist = 0; ALR H2O2 inh = /; Vif TR-FRET = -6%; RanGTP-Impb inh = /; LANA-H2B inh = /; Calb FLC = /; HNF4A DNA FP = 1.9
`O=c1c2ccccc2n(Cc2ccccc2F)c(=O)n1Cc1ccccc1F` across the screens: Beta2AR agonist = 7; ALR H2O2 inh = 1; Vif TR-FRET = -12%; RanGTP-Impb inh = 1.4; LANA-H2B inh = -3.4; Calb FLC = -9; HNF4A DNA FP = -3.1

The results go on.
(55) CN(C)S(=O)(=O)c1ccc(C(=O)OCC(=O)Nc2cccnc2Cl)cc1
(56) COCCN1Cc2cccc(C(=O)NC(C)CCc3ccco3)c2C1=O (centres undefined)
(57) CCN1CCN(CCc2nc3cc([N+](=O)[O-])ccc3n2C)CC1
(58) CCC(C)(C)NC(=O)CN(C(=O)C(=O)Nc1ccc2c(c1)OCCO2)C(C)(C)CC
(59) Cc1cc(NC(=O)CSc2nc3ccccc3c(=O)n2CCCC(=O)NCc2ccco2)n[nH]1
(60) CCNC(=S)NNC(=O)c1cc(-c2ccc(OCC)cc2)nc2ccccc12
(61) O=C1NC(=O)C(c2ccccc2)N1 (centres undefined)
(62) Cn1cccc1C(=O)NCCc1ccccc1
(63) O=C(Nc1ccc2oc(-c3cccnc3)nc2c1)c1ccc([N+](=O)[O-])o1

Compound,55,56,57,58,59,60,61,62,63
Beta2AR agonist,3,2,1,1,0,-15,-3,6,36
ALR H2O2 inh,-2,-5,-8,-4,-2,11,/,-3,/
Vif TR-FRET,5%,3%,4%,-10%,-4%&6%,-2%,-10%,/,-8%
RanGTP-Impb inh,0.1,-5.3,3.2,-3.5,0.3,?,/,1.6,-1.2
LANA-H2B inh,-3.9,-4.4,0.7,-0.4,-0.1,2.3,/,4.8,/
Calb FLC,-3,-2,-10,-25,27,17,/,-6,-4
HNF4A DNA FP,-1.1,-0.8,-2.2,1.6,0.5,2.1,1.8,-4.9,2.3
